High-throughput results: PubChem, SRMLSC
H5N1 CPE = MDCK cell protection from H5N1 avian flu; hit rate 0.07% among 96,000; inhibition, % at 50 µM; AID 740; cytopathic effect, luminescence, 72 h; stronger effect = higher value; no value below 0 was filed and about half of the inactive calls have no number; reference of the scale not given here; in the data active = inhibition above about 25%
An asterisk follows results filed as active; i = inactive. Not all compounds are listed, so the mix of outcomes need not match the whole.

molecule,H5N1 CPE
O=C(Nc1cccc(-c2nc3ccccc3s2)c1)c1cc(-n2cnnc2)ccc1Cl,1.4
COC(=O)CSc1nc2ccccc2nc1SCC(=O)OC,0.7
COC(=O)c1cc(Br)c(=O)n(-c2ccccc2OC)c1,0.5
Cc1cc(-c2csc(N)n2)c(C)n1CCC(C)C,i
CCN1CCN(C(=O)C2c3cc(OC)c(OC)cc3C(=O)N3CCc4ccccc4C23)CC1 (stereo unspecified),0.5
CC12CN3CC(C)(CN(C1)C3c1cccs1)C2O (stereo unspecified),1.1
COc1ccc2[nH]c(=O)c(CN(C(=O)NC3CCCCC3)C3CCCCC3)cc2c1,i
Cc1ccsc1C(=O)Nc1nnc(-c2ccco2)o1,2.0
Cc1cccc(C)c1OCC(=O)NNC(=O)c1ccoc1C,i
O=C1C2C3C=CC(C3=C3CCCCC3)C2C(=O)N1Cc1ccccc1 (stereo unspecified),0.9
Cc1ccc(NC(=O)CS(=O)CC(=O)N(CC(=O)NC2CCCC2)c2cccc(C)c2C)cc1 (stereo unspecified),0.1
O=S1(=O)CCN(Cc2ccc(Cl)c(Cl)c2)CC1,i
CCOC(=O)C(/C=C(\C#N)C(=O)OCC)=C(/N)N1CCN(c2ccc(Cl)cc2)CC1,i
CC1CCCN(C(=O)CCCn2c(=S)[nH]c3ccccc3c2=O)C1 (stereo unspecified),1.1
Cc1cc(C)n(CC(=O)c2ccccc2)c(=O)c1C#N,3.4
COc1ccccc1NC(=O)N(C1CCCC1)C1CCN(C(C)=O)CC1,i
Cc1oc(-c2ccccc2F)nc1CN1CCC(C(=O)NC2CC2)CC1,i
CCOC(=O)c1ccc(NC(=O)CSc2nnnn2CCCO)cc1,0.8
CC(C)[C@H](N)c1nnc(SCc2ccc(Cl)cc2)o1,0.3
Cc1cc(SCC(=O)N2CCC(c3noc4ccc(F)cc34)CC2)nc2ccccc12,4.1
CN(C)c1nc(N(C)C)nc(N2CCCCC2)n1,0.3
Cc1cccc(-c2nc(CN3CCCC(C(=O)NC4CCCCCC4)C3)c(C)o2)c1 (stereo unspecified),i
O=C(c1ccc(Br)cc1)c1cc([N+](=O)[O-])ccc1N1CCCCC1,3.4
COc1ccc(/C(C)=C2/SC(=S)N(CCC(=O)O)C2=O)cc1,0.3
CCCCC(=NCCO)C1=C(O)C(C(=O)OC)C(C)(C)CC1=O (stereo unspecified),i
CC1(C)CC(=O)C2=C(C1)NC(=O)CC2c1ccccc1F (stereo unspecified),i
Cc1ccc(CCN2CC(C(=O)NCCCN(C)Cc3ccccc3)CC2=O)cc1 (stereo unspecified),i
COc1ccc(CCn2c(=N)c(C(=O)NCc3ccco3)cc3c(=O)n4ccccc4nc32)cc1,1.2
Cn1c(SCC(=O)c2ccccc2)nnc1-c1cnccn1,i
Cn1c(CN2CCCC2)nc2cc(NC(=O)COc3ccccc3)ccc21,i

Arranged by formula weight (high to low): some entries from above
molecule,H5N1 CPE
CCOC(=O)c1ccc(NC(=O)CSc2nnnn2CCCO)cc1,0.8
Cc1cc(C)n(CC(=O)c2ccccc2)c(=O)c1C#N,3.4
Cc1cc(-c2csc(N)n2)c(C)n1CCC(C)C,i

More compounds.
molecule,H5N1 CPE
Cc1cc(C)cc(N(CC(=O)NCC2CCCO2)S(=O)(=O)c2c(C)noc2C)c1 (stereo unspecified),0.3
CN(C(=O)COc1ccc(C(C)(C)C)cc1)C1CCS(=O)(=O)C1 (stereo unspecified),2.4
Cc1nnc2ccc(N3CCN(c4cccc(C(F)(F)F)c4)CC3)nn12,4.7
CC1(C)CC(=O)CC(C)(C)N1OC(=O)c1ccco1,0.8
C=CCn1c(Cc2ccc(OC)cc2)nnc1SCC(=O)NCCc1ccccc1,i
CC(=O)Nc1sc2c(c1C(c1ccc(Cl)cc1)N1CCOCC1)CCCC2 (stereo unspecified),i
N#CCCN1CCN(C(=S)c2ccc(-c3ccc(Cl)cc3)o2)CC1,i
Nc1nnnn1/N=C/c1ccccc1OCc1ccccc1,0.8
CCN1C(=O)/C(=c2\o/c(=C3\C=Cc4ccccc4N3CC)c(=O)n2CC)SC1=S,i
COc1ccccc1C(=O)Nc1ccc2c(c1)nc(CN1CCN(C(C)=O)CC1)n2C,0.6
O=C(NCCc1ccc(Cl)cc1)C1CCC(=O)N1Cc1ccccc1Cl (stereo unspecified),i
C=CCOc1ccc(CNc2nn[nH]n2)cc1OC,0.1
CCCN(CCC)C(=O)C1CCN(c2cc(C)nc3c(-c4ccc(OC)c(OC)c4)c(C)nn23)CC1,i
Cc1nc(SCc2nc3ccccc3[nH]2)c2oc3ccccc3c2n1,0.8
O=C(O)C1CC(=O)N(c2ccc(OCc3ccc(Cl)cc3Cl)cc2)C1 (stereo unspecified),i
CCCCNC(=O)c1onc(CSc2ccc(C(C)C)cc2)c1C(=O)O,i
Cc1ccc(C)n1NC(=O)c1ccc(Cl)cc1,i
CCOC(=O)c1c(NC(=O)CC)sc(C(C)=O)c1C,1.9
COCCCNc1oc(-c2ccccc2OC)nc1C#N,0.4
O=C(COc1cccc(NC(=O)c2ccco2)c1)c1ccc(F)cc1,i
C=CCn1c(SCC(=O)c2ccc(CNC(C)=O)o2)nc2ccccc2c1=O,i
COc1ccc(Cl)c(Cn2c(NCc3ccccn3)nc3c2c(=O)n(C)c(=O)n3C)c1,i
Cc1cc(C(=O)N(C)Cc2ccc(Br)cc2)no1,i
CCN(CC)C(=O)COc1ccc(S(=O)(=O)N2CCOCC2)cc1,i
COC(=O)c1sccc1NC(=O)CSc1ccccc1NS(=O)(=O)c1ccccc1Cl,5.4
O=C(CN1CCN(S(=O)(=O)c2ccc(Br)cc2)CC1)Nc1ccc2c(c1)OCO2,1.5
CCC(C)Nc1nc(-c2cccc(OC)c2O)nc2ccccc12 (stereo unspecified),11.9
Cc1ccc(-c2csc(/C(C#N)=C(\O)CN3CCN(C(=O)c4ccco4)CC3)n2)cc1,i
Cn1c(O)c(C(=O)c2ccccc2F)c(=O)n(C)c1=O,i
O=C(CSc1n[nH]c(-c2cccs2)n1)N1CCN(S(=O)(=O)c2ccc3ccccc3c2)CC1,1.4
O=C(c1cccc(Cl)c1)N1CCN(c2ccccn2)CC1,i
O=C(COC(=O)c1ccccc1Nc1ccccc1)NCc1ccco1,i
CCC(Sc1nc2c(cnn2-c2ccccc2)c(=O)[nH]1)C(=O)OC (stereo unspecified),1.6
O=C1N=C(N2CCCCC2)SC1=C1CCCCC1,i
C=CCn1c(SCC(=O)NCCOC)nc2scc(-c3ccco3)c2c1=O,1.4
CCc1ccccc1NS(=O)(=O)c1ccc2[nH]cc(C(=O)NCc3ccco3)c(=O)c2c1,i
COc1ccc(-c2nnc3ccc(SCC(=O)N4CCCCC4)nn23)cc1OC,5.4
CC(=O)c1ccc(C(=O)Nc2ccc(N3CCOCC3)cc2)cc1,1.1
O=C(C1Cc2ccccc2CN1S(=O)(=O)c1ccc(F)cc1)N1CCCCC1 (stereo unspecified),i
CCOC(=O)c1sc(C(=O)OCC)c(OCCO)c1OCCO,0.5
CC(C)(C)SCCNC(=O)COc1ccc(Cl)cc1,0.5
Cc1noc(/C=C/N(C)C)c1S(=O)(=O)N1CCCC(C(=O)Nc2ccc3c(c2)OCO3)C1 (stereo unspecified),0.0
CCOC(=O)N1CCC(NC(=O)CCc2nc(C3=CCN(C)CC3)no2)CC1,0.5
CC(C)(C)NC(=O)C1CN(S(=O)(=O)c2ccccc2)CCN1S(=O)(=O)c1ccccc1 (stereo unspecified),3.3
O=C1C(c2ccncc2)N(CCC2=CCCCC2)C(=O)CN1C1CCCCC1 (stereo unspecified),0.5
Cc1cc(NC(=O)C2CC(c3ccc(F)cc3)=NO2)no1 (stereo unspecified),1.5
COc1ccc(N(C(=O)C(C)C)S(=O)(=O)c2cccs2)cc1,i
CCCSC1=C(C#N)C(c2ccccc2OCC)CC(=O)N1 (stereo unspecified),1.7
O=C(O)C1CC1c1ccc(Br)cc1 (stereo unspecified),i
Cc1cc(C)c(S(=O)(=O)N2CCCCC2)c(C)c1-n1ncnn1,1.0
O=S(=O)(c1ccc2c(c1)OCCO2)N1CCN(c2cccc(Cl)c2)CC1,0.9
COc1ccc(N2CCN(C(=O)c3csc4ccccc34)CC2)cc1,i
O=C(Nc1ccc(Cn2nnc3ccccc32)cc1)c1ccco1,0.3
CC(C)C(NC(=O)c1ccco1)C(=O)NCC(c1ccco1)N(C)C (stereo unspecified),1.2
CN(C)Cc1ccccc1C1(O)c2ccccc2CSc2ccccc21 (stereo unspecified),i
O=C(NCc1cccnc1)c1ccc(COc2ccccc2Br)o1,i
CCCCN(CC)C(=O)CSc1nc2ccccc2c(=O)n1CC1COc2ccccc2O1 (stereo unspecified),1.8
OCCSc1c(F)c(SCCO)c(SCCO)c(F)c1SCCO,0.1
CC1CC(C)CN(CCCNC(=O)C2CCCN(c3nnc(N4CCCC4=O)s3)C2)C1 (stereo unspecified),0.6
O=C(O)C1C(c2ccccc2)C(C(=O)N2CCOCC2)C1c1ccccc1 (stereo unspecified),0.0

(further entries)
molecule,H5N1 CPE
CN1CCN(c2nc3c(c(=O)n(C)c(=O)n3C)n2Cc2cccc3ccccc23)CC1,3.7
CCn1nnnc1NCc1ccc(N2CCCC2)cc1,2.0
C=CCc1cccc(Cl)c1OCCON1C(=O)CCC1=O,i
Cc1cc(NCCN2CCOCC2)n2ncc(-c3ccccc3)c2n1,i
O=C(c1ccc(Cl)c(Cl)c1)c1cc(-c2ccccn2)c(N2CCOCC2)s1,1.5
Cc1cc(C)n(CC(O)Cn2c3ccc(Br)cc3c3cc(Br)ccc32)c(=O)n1 (stereo unspecified),i
CC(C)(C)C1=C[C@@H](CO)C[C@@H](CO)C1,0.2
CCOC(=O)c1ccccc1NC(=O)CCNC(=O)Cn1cnc2ccccc2c1=O,i
COc1cccc(C(=O)CSc2nc3ccccc3n2CC(=O)N2CCOCC2)c1,i
Cc1cc(C)cc(OCc2nnc(SCC(=O)N3CCN(c4ccccc4)CC3)o2)c1,i
Cc1ccc(S(=O)(=O)NC(C)(C)CSc2nncn2N)cc1,0.0
O=C(N1CCOCC1)N1c2ccccc2CC(N2CCOCC2)c2ccccc21 (stereo unspecified),2.5
CCCC(=O)NC(=S)Nc1ccc(Cl)cn1,i
CCC(=O)NC(=S)Nc1ccc(S(=O)(=O)NC(C)=O)cc1,i
CCOC(=O)c1cc2n(n1)C(C(F)(F)F)CC(C)N2 (stereo unspecified),1.1
O=C(CSc1ccc2ccccc2c1)Nn1cnnc1,0.9
c1ccc(-c2noc(CSc3nc4ccccc4o3)n2)cc1,i
Cn1c(C(=O)OCC(=O)NCC2CCCO2)cc2sccc21 (stereo unspecified),0.4
COc1cc(C2C(C(N)=O)=C(C)Nc3nc(CCCO)nn32)cc(OC)c1OC (stereo unspecified),1.1
C=CCn1c(SCc2ccc([N+](=O)[O-])cc2)nnc1C(C)NC(=O)c1ccccc1 (stereo unspecified),3.0
COc1cccc(OC)c1-c1nn2c(-c3cc(-c4ccccc4)n[nH]3)nnc2s1,i
O=C(c1ccc(Cl)cc1)N1CCCOC1,i
C=CCn1c(SC2CCOC2=O)nc2scc(C3CC3)c2c1=O (stereo unspecified),0.4
Cc1cc(=O)[nH]c(N=N/C(=N/Nc2ccccc2C)c2ccccc2)n1,i
O=C(NC(Cc1ccccc1)C(=O)O)/C(=C\c1ccco1)NC(=O)c1ccc(Br)cc1 (stereo unspecified),0.9
CC(C)(C)CC(C)(C)NC(=S)Nc1ccc2nc(-c3ccccn3)c(-c3ccccn3)nc2c1,0.9
Cc1cc(C)c(S(=O)(=O)N2CCN(C)CC2)c(C)c1,0.2
CCCCOCCCNC(=O)c1c(-c2ccccc2)noc1C,0.7
O=C(c1ccco1)N1CCN(S(=O)(=O)c2ccc3c(c2)CCN3C(=O)C2CCC2)CC1,2.4
CCC(=O)Nc1ccc(C(=O)OCc2ccccc2Cl)cc1,i
Cc1ccc(Nc2nc(-c3sc(NC(=O)c4ccccc4)nc3C)cs2)cc1,i

Among those listed so far, 13 have two or more sulfur atoms:
molecule,H5N1 CPE
COC(=O)CSc1nc2ccccc2nc1SCC(=O)OC,0.7
COc1ccc(/C(C)=C2/SC(=S)N(CCC(=O)O)C2=O)cc1,0.3
CCN1C(=O)/C(=c2\o/c(=C3\C=Cc4ccccc4N3CC)c(=O)n2CC)SC1=S,i
COC(=O)c1sccc1NC(=O)CSc1ccccc1NS(=O)(=O)c1ccccc1Cl,5.4
O=C(CSc1n[nH]c(-c2cccs2)n1)N1CCN(S(=O)(=O)c2ccc3ccccc3c2)CC1,1.4
C=CCn1c(SCC(=O)NCCOC)nc2scc(-c3ccco3)c2c1=O,1.4
CC(C)(C)NC(=O)C1CN(S(=O)(=O)c2ccccc2)CCN1S(=O)(=O)c1ccccc1 (stereo unspecified),3.3
COc1ccc(N(C(=O)C(C)C)S(=O)(=O)c2cccs2)cc1,i
OCCSc1c(F)c(SCCO)c(SCCO)c(F)c1SCCO,0.1
Cc1ccc(S(=O)(=O)NC(C)(C)CSc2nncn2N)cc1,0.0
CCC(=O)NC(=S)Nc1ccc(S(=O)(=O)NC(C)=O)cc1,i
C=CCn1c(SC2CCOC2=O)nc2scc(C3CC3)c2c1=O (stereo unspecified),0.4
Cc1ccc(Nc2nc(-c3sc(NC(=O)c4ccccc4)nc3C)cs2)cc1,i
